Screens: PubChem, National Center for Advancing Translational Sciences (NCATS)
GLA inh pH 4.5 = qHTS Assay for Inhibitors of Human alpha-Galactosidase at pH 4.5; activity change, negative = inhibition, % at 105 µM; Alpha-galactosidase A (Homo sapiens), P06280; AID 1467, 2008; purified enzyme, 4-MU-alpha-Gal fluorescence, pH 4.5; 230,000 tested, under 10 active; inconclusive = small, poorly fitted or top-dose-only inhibition, or a rising curve; inactive = flat fitted curve, though single readings scatter; no compound was filed as active;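 further: 0% = full activity with enzyme and -100% = basal without enzyme; dose as in the result columns while the protocol names 77 µM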
Rango-impB inh = qHTS Assay for Inhibitors of Rango (Ran-regulated importin-beta cargo) - Importin beta complex formation | Rango CFP/YFP FRET sensor + importin beta, 45 min | Potency, µM (titrated, usually from 92.2 µM), without a hit: top-dose inhibition of complex formation | 0.031% of 340,000 active | AID 540263, 2011; active = rising FRET ratio curve, often small or poorly fitted; inconclusive = mostly compound fluorescence or quenching in the first reads; inactive = flat curves in all reads;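 further: potency means the concentration at half of the fitted maximal effect; 0% = DMSO wells and 100% = buffer wells lacking importin beta; nearly all actives have a fitted effect of over 15% in size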
Target sequence (Q14974 whole entry, looked up): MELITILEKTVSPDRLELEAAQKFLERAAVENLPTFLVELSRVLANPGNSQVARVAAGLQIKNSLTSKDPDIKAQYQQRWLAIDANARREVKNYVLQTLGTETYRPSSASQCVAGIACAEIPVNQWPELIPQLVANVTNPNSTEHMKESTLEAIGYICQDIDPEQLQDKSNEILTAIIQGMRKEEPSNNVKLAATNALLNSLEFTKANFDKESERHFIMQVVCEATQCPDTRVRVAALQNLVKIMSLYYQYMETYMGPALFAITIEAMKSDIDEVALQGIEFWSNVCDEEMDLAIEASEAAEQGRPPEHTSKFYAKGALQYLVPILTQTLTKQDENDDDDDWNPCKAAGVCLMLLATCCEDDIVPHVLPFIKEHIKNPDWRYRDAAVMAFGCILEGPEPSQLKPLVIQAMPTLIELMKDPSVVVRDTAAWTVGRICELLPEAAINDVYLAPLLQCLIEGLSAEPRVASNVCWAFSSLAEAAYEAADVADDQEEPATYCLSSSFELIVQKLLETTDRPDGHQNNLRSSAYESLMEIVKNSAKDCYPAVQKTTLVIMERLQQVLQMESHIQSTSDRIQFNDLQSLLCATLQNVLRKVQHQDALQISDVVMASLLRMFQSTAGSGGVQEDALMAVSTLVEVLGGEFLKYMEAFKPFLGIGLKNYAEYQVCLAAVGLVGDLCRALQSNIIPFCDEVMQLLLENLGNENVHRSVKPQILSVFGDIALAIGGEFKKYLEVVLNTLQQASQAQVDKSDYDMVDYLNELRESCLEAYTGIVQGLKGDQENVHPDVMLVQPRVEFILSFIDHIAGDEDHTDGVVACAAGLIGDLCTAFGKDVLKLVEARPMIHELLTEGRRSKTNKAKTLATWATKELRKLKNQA
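FRET biosensor Rango (snurportin 1 IBB between N-terminal EYFP and C-terminal Cerulean), 50 nM in PBS/1 mM DTT/0.02% Tween-20/0.1% BSA, preincubated 5 min RT with compound; 0.125 microM importin beta added, 45 min RT, CFP/YFP FRET ratio read.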
miR-21 reporter = qHTS Assay for Modulators of miRNAs and/orActivators of miR-21; Potency, µM (top dose mostly 38.3 µM), inactives show at the highest dose reporter change, positive = more light; 340,000 tested, under 10 active; AID 2288, 2010; HeLa miR-21 FLuc reporter, luciferase, 48 h; active = well fitted rising curve with a large enough effect; inconclusive = small, poorly fitted or top-dose-only effect; inactive = no such curve, though single readings can be large or run the other way;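 further: % of control where 0% means no effect; miR-21 action dims this reporter so a rising signal means less miR-21 action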
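Luminescence from a firefly luciferase reporter carrying a miR-21 binding site downstream, stably expressed under a CMV promoter in HeLa cells that make miR-21 endogenously, reports miRNA modulation after 48 h compound exposure up to approximately 40uM final.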
Rango dissoc inh = qHTS Assay for Inhibitors of RanGTP induced Rango (Ran-regulated importin-beta cargo) - Importin beta complex dissociation. Snurportin-1 (Homo sapiens) + GTP-binding nuclear protein Ran (Homo sapiens) + Importin …. Biochemical FRET Rango-importin beta, RanGTP-induced dissociation. Potency, µM (doses to about 46.1 µM), for the others: top-dose activity change, negative = inhibition. 0.071% of 340,000 active. AID 540253, 2011; active means falling FRET ratio curve, often poorly fitted, with flat reads before Ran was added; inconclusive means other falling curves, or compound fluorescence or quenching; inactive means flat or rising ratio curve;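 further: potency means the concentration at half of the fitted maximal effect; % of control where 0% means no effect; nearly all actives have a fitted effect of over 45% in size; -100% = wells without RanGTP and RCC1; the record marks most hits as doubtful in a second field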
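Rango (0.1 uM)–importin beta (0.25 uM) complex; RanGTP-RCC1 trigger; 45 min RT; CFP/YFP FRET read.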
The depositor's hits bear a star; ? = inconclusive; · = no result given; [ ] = another dose, or the depositor's remark. Some of the compounds tested; the hit share may differ from the screen's.

Preview (two entries):
miR-21 reporter	GLA inh pH 4.5	Rango-impB inh	Rango dissoc inh	canonical_smiles
5%	6	-1.5%	-9%	O=C(CCn1nc(-c2ccc(Cl)cc2)c2ccccc2c1=O)NCC1CCCO1 (stereo unspecified)
-1%	·	2.4%	-9%	CCOc1ccc(C(=O)NC2CCN(S(=O)(=O)c3ccccc3)CC2)cc1

Main list, repeating the preview:
miR-21 reporter	GLA inh pH 4.5	Rango-impB inh	Rango dissoc inh	canonical_smiles
5%	6	-1.5%	-9%	O=C(CCn1nc(-c2ccc(Cl)cc2)c2ccccc2c1=O)NCC1CCCO1 (stereo unspecified)
-1%	·	2.4%	-9%	CCOc1ccc(C(=O)NC2CCN(S(=O)(=O)c3ccccc3)CC2)cc1
-28%	-1	-1.2%	13%	O=S1(=O)CCC(NC(=S)Nc2ccc3ccccc3c2)C1 (stereo unspecified)
10%	-16	-1.9%	-6%	Cc1cc(C(=O)CSc2nnc(NCc3ccccc3)s2)c(C)n1C
0%	·	-0.5%	5%	O=C(CN1C(=O)NC2(CCCC2)C1=O)Nc1cccc(Cl)c1
-12%	-2	0.8%	-8%	C/C(=N/NC(=O)c1sc(NS(=O)(=O)c2ccccc2)nc1C)c1ccc(F)cc1
-3%	-3	-0.8%	-1%	Cc1csc(NC(=O)CSc2nnc(C)n2Cc2ccco2)n1
-10%	1	0.1%	9%	COc1ccc(C2C(C(=O)N3CCCCC3)CCC(=O)N2c2cc(OC)c(OC)c(OC)c2)cc1 (stereo unspecified)
2%	3	-0.9%	-8%	CC(=O)NNc1nc(-c2ccccc2)cs1
-9%	-5	-2.0%	-6%	CN(C)c1ccc(-c2noc(C3CCN(S(=O)(=O)c4cccc(Cl)c4)CC3)n2)cc1
-1%	10	-1.8%	0%	COc1cc2c(cc1OC)CN(C(=S)Nc1ccccc1)CC2
2%	-3	6.5%	3%	NC(=O)c1ccsc1NC(=O)COC(=O)CCOc1ccccc1
-10%	5	0.1%	-7%	Cc1nn(CC(=O)N2CCN(Cc3ccccc3)CC2)c(=O)c2ccccc12
7%	·	6.2%	5%	CC(C)N1CC(C(=O)Nc2ccc(S(=O)(=O)N3CCCCC3)cc2)CC1=O (stereo unspecified)
-8%	-19	?	?	CCOC(=O)CC(=O)CSc1nc2c(cc1C#N)CCCCCC2
-6%	-5	-0.8%	1%	CCOC(=O)N/N=C(/c1ccccc1)C1CCCCC1
3%	-11	3.0%	-10%	NS(=O)(=O)c1ccc(NC(=O)COC(=O)COc2ccc(Br)cc2)cc1
-2%	-7	0.3%	6%	CCc1cc(-c2nc(N)ncc2-c2ccc(Br)cc2)c(O)cc1OC
-10%	2	-1.8%	1%	CC1CCN(C(=O)C2CCCCN2S(=O)(=O)c2cccc([N+](=O)[O-])c2)CC1 (stereo unspecified)
·	·	-0.4%	1%	Cc1nn(CC(=O)OCC(=O)Nc2cccc(S(N)(=O)=O)c2)c(C)c1[N+](=O)[O-]
·	·	-3.0%	2%	CC(=O)Oc1ccccc1C(=O)Nc1ccccc1
-10%	-1	-2.7%	-15%	CCOc1ncccc1C(=O)Nc1ccccc1F
·	·	0.2%	-11%	CCCCN(C(=O)Cc1ccc2c(c1)OCCO2)c1c(N)n(CC(C)C)c(=O)[nH]c1=O
3%	11	?	?	COc1cc(C2CC(c3cccnc3)=NN2c2ccc(F)cc2)cc(OC)c1OC (stereo unspecified)
-21%	-3	-3.7%	10%	CC1Cc2nc(SCC(=O)c3ccccc3)n(Cc3ccccc3)c(=O)c2S1 (stereo unspecified)
12%	·	1.2%	-19%	CCOc1ccccc1/C=C/c1onc(C)c1S(=O)(=O)N1CCC(C(=O)N2CCCCCC2)CC1
·	·	?	-8%	COc1ccc(OCC(=O)Nc2cc(S(=O)(=O)N3CCCC3)ccc2Cl)cc1
-2%	1	2.8%	10%	CC(=O)c1c(N2CCN(Cc3ccccc3)CC2)[nH]c(-c2ccccc2)nc1=S
22%	-15	-1.9%	0%	Cc1onc(-c2c(Cl)cccc2Cl)c1C(=O)N/N=C(\N)COc1ccc(Cl)cc1
-13%	7	3.2%	-10%	CCSc1nnc(-c2ccc(C)cc2)c2ccccc12
·	·	?	-15%	COc1ccc(Cl)cc1NC(=O)CN(C)C(=O)C1CC(=O)N(Cc2ccc(C)cc2)C1 (stereo unspecified)
-4%	-21	0.9%	0%	O=C1C2(CCC13COC(c1ccc(O)cc1)OC3)COC(c1ccc(O)cc1)OC2 (stereo unspecified)
-20%	-1[21.1 µM]	2.8%	?	CC(C)c1ccc(/C=N/NC(=O)c2ccccc2Cl)cc1
-6%	-4	0.0%	10%	O=C(c1cccc(C(F)(F)F)c1)N1CCOC12CCN(c1ncc(C(F)(F)F)cc1Cl)CC2
·	·	1.9%	-7%	O=C(Nc1ccc(C(=O)N2CCCCC2)cc1)c1ccccc1
-4%	-5	-0.8%	-12%	CCOC(=O)c1c(N)sc(C(=O)N2CCCCC2)c1C
-6%	-1	-0.8%	-6%	Cc1ccc(S(=O)(=O)NC(C)C(=O)Nc2ccccc2C(=O)N2CCCC2)cc1 (stereo unspecified)
9%	·	-2.0%	-6%	COc1cc(CN2CC(=O)N(c3cccc(Cl)c3C)C2=S)cc(OC)c1OC
?	-24	-7.4%	9%	CCN(CC)S(=O)(=O)c1cccc(NC(=O)Nc2cccc(C(F)(F)F)c2)c1
-71%	-9	4.2%	8%	COc1ccc(Cn2c(C3CC3)nc3ccc(NC(C)=O)cc3c2=O)cc1
-2%	3	-0.2%	-11%	CC(C)CC(=O)NNC(=O)C(C)C
5%	-6	4.0%	2%	CCC(=O)Nc1ccccc1Nc1cc(C#N)c(C#N)cc1[N+](=O)[O-]
21%	-1	-1.6%	7%	COC(=O)/C=C/C(=O)N1CCN(c2ccccc2C)CC1
5%	·	-1.2%	6%	CCCCn1c(=O)c2c(nc3n2CCCN3Cc2ccccc2)n(C)c1=O
-5%	1	-1.4%	1%	O=C(Nc1ccccc1N1CCN(c2ccc(F)cc2)CC1)C12CC3CC(CC(C3)C1)C2
-1%	-2	2.5%	-7%	COC(=O)CCCCCCCCC(O)C[N+]1(C)CCOCC1 (stereo unspecified)
1%	3	-0.3%	5%	CC(=O)NS(=O)(=O)c1ccc(NC(=O)/C=C/c2ccccc2)cc1
6%	-3	-1.5%	15%	COc1ccccc1NC(=O)CSC(N)=O
-77%	-5	?	?	Cc1[nH]c2ccccc2c1/C=C/c1nc2ccccc2c(=O)[nH]1
1%	·	-0.1%	-20%	COc1ccc(C(=O)O)cc1S(=O)(=O)NCc1cccnc1
·	·	-0.4%	11%	CCOc1ncccc1C(=O)N1CCN(S(=O)(=O)c2ccc3c(c2)OCCO3)CC1
-1%	5	-0.6%	2%	CC(=O)Nc1nc(C(=O)Nc2c(C)n[nH]c2C)cs1
-1%	·	0.3%	-1%	O=C(NC1CCCN(Cc2ccc(Cl)cc2)C1)c1c(F)cccc1F (stereo unspecified)
-20%	-11	?	?	COc1ccc(/C=C2\C(=O)NC(=S)N2C(=O)c2ccc(F)cc2)cc1
11%	·	-1.0%	-7%	CC(=O)CCC(=O)NC1CCCc2c1cnn2-c1ccc(C(C)(C)C)cc1 (stereo unspecified)
-1%	-5	1.8%	5%	CCN(CC)S(=O)(=O)c1cccc(C(=O)Nc2nnc(C)s2)c1
-5%	2	-5.0%	6%	CC1CCN(S(=O)(=O)c2ccc3[nH]c(=O)cc(C(=O)O)c3c2)CC1
-6%	6	2.2%	8%	Cc1ccc(C(=O)N[C@H](C(=O)OCC(=O)NC2CCS(=O)(=O)C2)C(C)C)cc1 (stereo partly specified)
-30%	0	-0.4%	8%	COc1cccc(C2Cc3ccccc3C(=O)O2)c1 (stereo unspecified)
·	·	1.1%	10%	CC(C)(C)OC(=O)C[C@H]1C/C=C\C[C@@H](CC(=O)N(CCO)Cc2ccccc2)C(=O)N[C@H](C(C)(C)C)COC1=O

(continued)
miR-21 reporter	GLA inh pH 4.5	Rango-impB inh	Rango dissoc inh	canonical_smiles
-8%	·	0.8%	0%	CCOC(=O)C(=CNc1nc(-c2ccccc2)c(C(=O)Nc2ccc(-c3ccccc3)cc2)s1)C(=O)OCC
6%	8	-4.1%	-6%	CC1(C)CC(=O)c2cnc(NC(=O)CSC(=S)N3CCCCC3)nc2C1
-5%	-1	-1.1%	5%	COC(=O)c1c(NC(=O)c2cccnc2)sc(C(=O)N(C)C)c1C
-1%	-9	1.6%	3%	COc1ccc(Cn2c(=O)[nH]c3cc(C(=O)NCCCN4CCCCCC4)ccc3c2=O)cc1
12%	3	?	-6%	O=C(O)/C=C/C(=O)Nc1ccccc1SC(F)(F)C(F)(F)C(F)(F)F
-26%	-8	5.1%	3%	Cc1csc(NC(=O)CSc2nnc(-c3cc(C)on3)o2)n1
·	·	?	-3%	CCOC(=O)c1ccc(S(=O)(=O)N2CCN(C(=O)c3ccccn3)CC2)cc1
-14%	-2	-1.9%	-5%	COC(=O)c1ccc(NC(=S)NN2CCCCC2c2cccnc2)cc1 (stereo unspecified)
2%	·	-1.7%	-8%	COCCN1CCN(C(=O)C2CCC(=O)N(Cc3ccccc3OC)C2)CC1 (stereo unspecified)
-20%	·	-0.3%	8%	O=C1C(=O)N(CCN2CCOCC2)C(c2ccc([N+](=O)[O-])cc2)/C1=C(/O)c1ccc2c(c1)OCO2 (stereo unspecified)
-3%	·	0.3%	2%	COc1ccc(OCCn2ccnc2)cc1
27%	-18	-4.8%	16%	COc1ccc(CNC(=O)c2coc(=O)c3ccccc23)c(OC)c1
-3%	-3	-4.2%	20%	O=C(CCn1nc(-c2ccccc2)c2ccccc2c1=O)NN1CCOCC1
-11%	-7	0.2%	-10%	CC(Sc1nc2ccccc2n1C)C(=O)Nc1ccc(N2CCOCC2)cc1 (stereo unspecified)
-9%	·	-2.6%	-6%	COc1cc(NC(=O)C2=C(C)OCCS2)c(Cl)cc1C(=O)NCCN(C)C
16%	-20	-1.9%	7%	C#CCN(C)CC/C=C1\c2ccccc2CSc2ccccc21
-4%	-6	-8.2%	15%	CN1C(=O)C(O)(C2OC(C)(C)CCC2=O)c2ccccc21 (stereo unspecified)
·	·	-2.1%	6%	COc1ccccc1NC(=O)Nc1nc(CC(=O)N2CCN(c3ccccc3F)CC2)cs1
·	·	3.3%	-1%	Cc1oc(-c2cccs2)nc1CNC[C@H]1O[C@@H](n2cnc(C(N)=O)n2)[C@H](O)[C@@H]1O
-6%	3	-3.4%	-18%	Cc1ccc(-n2nnnc2-c2cnoc2-c2cccc(F)c2)cc1
0%	-1	-0.4%	0%	Cc1nn(C)c(C(=O)Nc2ccc(Br)cc2F)c1Br
-6%	-2	3.3%	-2%	O=C(CCCN1C(=O)CCC1=O)Nc1ccc(Cl)c(C(F)(F)F)c1
-57%	0	4.0%	10%	CC(C)n1cnc2cc(NCc3nc4ccccc4n3C)ccc21
-9%	5	1.5%	7%	CC(C)Oc1cccc(C(=O)C2CCCN(C(=O)c3ccsc3)C2)c1 (stereo unspecified)
18%	0	0.5%	-1%	CCOc1cc(NC(=O)CCl)c(OCC)cc1NC(C)=O
-1%	-5	-10%	-12%	O=C(CN1CCN(c2ncc(C(F)(F)F)cc2Cl)CC1)Nc1ccc2c(c1)OCO2
-5%	9	3.2%	-2%	CCOC(=O)COc1ccc(S(=O)(=O)Nc2ccc3c(c2)OCO3)cc1

Sorted by count of non-hydrogen atoms (highest first): 3 of the compounds above
miR-21 reporter	GLA inh pH 4.5	Rango-impB inh	Rango dissoc inh	canonical_smiles
-5%	9	3.2%	-2%	CCOC(=O)COc1ccc(S(=O)(=O)Nc2ccc3c(c2)OCO3)cc1
-6%	3	-3.4%	-18%	Cc1ccc(-n2nnnc2-c2cnoc2-c2cccc(F)c2)cc1
0%	-1	-0.4%	0%	Cc1nn(C)c(C(=O)Nc2ccc(Br)cc2F)c1Br
